D2 potentiator – human D2 receptor positive allosteric modulation; P14416; DiscoveRx D2 beta-arrestin cells, luminescence, 90 min; 100% = 57 uM dopamine signal; potentiation, % (test concentration not listed); 360,000 tested, 0.23% active; active = potentiation of 50% or more; inconclusive = 30% to 50%; inactive = 30% or less;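 further: compound concentration not given in the record; tested on top of an EC20 dose of dopamine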
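D2 cells co-treated with compound plus 50 nM dopamine (EC20) for 90 min at 37 deg C to detect potentiation. Beta-arrestin recruitment was read as enzyme-fragment luminescence after 1 h at ambient temperature. Full response was set by 57 uM dopamine.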
TRPML1 inh – blocks the human TRPML1 channel; TRPML1-inducible cells, Ca2+ dye fluorescence, FDSS; stronger effect = lower value; inhibition of EC80 agonist-evoked calcium signal; activity change, negative = inhibition, % (test concentration not listed); 390,000 tested, 0.02% active; AID 624415; in the data active means activity change below about -50%; inconclusive means about -30% to -50%; inactive means above about -30%;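 further: stimulus is agonist 54-4 at its EC80 concentration; on the % scale 0 is the no-effect control and ±100 the full control effect; compound concentration not given in the record; the text of the record puts the active cut at -80%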
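Calcium fluorescence in TRPML1-DL cells induced overnight with Tet: a 110 s read after compound pin addition, then a 110 s antagonist read after challenge with 54-4 at 4 uM final (EC80).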
D2 agonist – activates the human D2 dopamine receptor | DiscoveRx PathHunter D2 beta-arrestin, luminescence, 90 min; 100% = 57 uM dopamine signal | P14416 | 360,000 tested, 0.084% active | activation, % (concentration not given with the values) | AID 624465; in the data active = activation above about 40%; inconclusive = about 15% to 40%; inactive = below about 15%; further: compound concentration not given in the record; the text of the record calls up to 30% inactive
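Agonist mode: compounds alone added to overnight-plated D2 PathHunter cells for 90 min at 37 C, with 57 uM final dopamine (EC100) defining full response. Beta-arrestin recruitment detected by chemiluminescent reagent, read after 1 h at ambient temperature.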
PINK1 modulator – modulators of PINK1 expression | PINK1 immunofluorescence, high-content cytometry, 24 h | Potency, µM (titrated, usually from 76.6 µM), without a hit: at the top dose activation (PINK1 increase), actives largely listed as activators | 410,000 tested, 0.2% active; active = well fitted activation curve with a large enough effect; inconclusive = small, poorly fitted or top-dose-only effect; inactive = flat fitted curve, though single readings scatter; cell line not stated here;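 further: potency means the concentration at half of the fitted maximal effect; % of control where 0% means no effect; nearly all actives have a fitted effect of over 65% in size; a mitochondrial uncoupler was the plate control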
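Stable cell line treated 24 h with compounds at 5 concentrations (CCCP controls), then fixed and immunostained for PINK1 plus nuclear and cell stains; PINK1 immunofluorescence quantified by laser-scanning microplate cytometry.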
TRPML1 ag – human mucolipin-1 channel agonism; TRPML1-expressing cells, Ca2+ dye fluorescence, FDSS; host cell line not named in the record; reference of the full effect not given here; activation, % (concentration not given with the values); 410,000 tested, 0.12% active; in the data active = activation above about 50%; inconclusive = about 30% to 50%; inactive = below about 30%; further: 0% is about no effect; the text of the record puts the active cut at 80%
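Kinetic FDSS Ca2+ read in Tet-induced TRPML1-DL cells (ABD Ca8 dye plus quencher, 45-90 min RT loading): baseline, then compound, then 110 s agonist window; EC80 agonist 54-4 at 4uM final added afterwards for a 110 s antagonist window.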
Six1-Eya2 inh – Six1/Eya2 interaction inhibition | Q15475+O00167 | AlphaScreen GST-Six1/His-Eya2 binding, biochemical; stronger effect = lower value; control for the full effect not named in the record | activity change, % (test concentration not listed) | 360,000 tested, 0.56% active | AID 651725; in the data active = activity change below about -65%; inconclusive = about -30% to -65%; inactive = above about -30%; further: on the % scale 0 is the no-effect control and ±100 the full control effect; compound concentration not given in the record
Target sequence (O00167 whole entry, looked up): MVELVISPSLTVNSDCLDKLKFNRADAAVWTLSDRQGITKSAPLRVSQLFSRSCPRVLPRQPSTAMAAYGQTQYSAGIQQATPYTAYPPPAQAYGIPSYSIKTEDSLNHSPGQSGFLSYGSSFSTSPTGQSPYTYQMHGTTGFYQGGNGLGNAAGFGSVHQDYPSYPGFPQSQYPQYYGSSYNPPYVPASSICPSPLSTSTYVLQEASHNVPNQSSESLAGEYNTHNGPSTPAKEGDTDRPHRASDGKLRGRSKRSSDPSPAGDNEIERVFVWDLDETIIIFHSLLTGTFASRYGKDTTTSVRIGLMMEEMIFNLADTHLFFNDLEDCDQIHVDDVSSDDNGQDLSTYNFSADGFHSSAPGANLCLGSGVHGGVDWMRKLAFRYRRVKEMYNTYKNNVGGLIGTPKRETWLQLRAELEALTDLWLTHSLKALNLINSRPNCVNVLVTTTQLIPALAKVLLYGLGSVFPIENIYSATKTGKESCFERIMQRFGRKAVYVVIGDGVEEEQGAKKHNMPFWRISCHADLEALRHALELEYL
Target sequence (Q15475 whole entry, looked up): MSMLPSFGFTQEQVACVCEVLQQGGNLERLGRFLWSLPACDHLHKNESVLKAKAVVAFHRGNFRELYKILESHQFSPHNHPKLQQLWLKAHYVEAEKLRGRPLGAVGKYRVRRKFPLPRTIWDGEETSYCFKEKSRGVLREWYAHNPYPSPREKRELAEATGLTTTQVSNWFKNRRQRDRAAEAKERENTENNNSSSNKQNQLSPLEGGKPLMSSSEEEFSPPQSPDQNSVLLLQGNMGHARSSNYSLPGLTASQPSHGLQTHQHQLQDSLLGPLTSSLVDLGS
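AlphaScreen luminescence read after one hour at 37 °C in darkness. Pin-transferred compounds met GST-Six1 and His-Eya2 protein (5X stock 250 nM/500 nM) plus glutathione donor and Ni-chelate acceptor beads (5X, 50 ug/mL).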
Starred values were filed as active, the others as inactive; u = inconclusive; x = no result given; & = joins results of further samples; [ ] = another dose, or the depositor's remark.

SMILES	D2 potentiator	TRPML1 inh	D2 agonist	PINK1 modulator	TRPML1 ag	Six1-Eya2 inh
COc1cccc(C2CC(=O)Nc3c2c(=O)[nH]c2nc4ccccc4n32)c1 (configuration not stated)	x	-7.3	x	1.1%	1.0	x
O=C(c1ccc(S(=O)(=O)N2CCCCC2)cc1)N1CCc2ccccc2C1	-7.4	-6.1	2.1	-0.3%	-0.1	2.8
Cc1ccccc1N1CCN(Cc2c[nH]c3ccccc23)CC1	-18.5	3.2	-3.5	1.2%[38.3 µM]	0.0	5.0
S=C(NCCN1CCOCC1)Nc1ccc(Cl)cc1	-7.4	-8.3	-3.3	-0.9%	0.2	-4.3
COC(=O)C1C2C=CC3(CN(CC4CCCO4)C(=O)C13)O2 (configuration not stated)	-22.8	-5.6	-5.0	-0.2%	-0.4	27.4
CSc1nc2ccccc2n1CC(=O)Nc1c(C)cccc1C	0.1	16.9	-3.9	-1.0%	2.1	0.7
CCOC(=O)c1ccc2c(c1)C1C=CCC1C(C(=O)OCC)N2 (configuration not stated)	0.8	5.8	7.4	0.5%	-0.6	-19.1
Cc1cc(C)nc(Sc2c(F)c(F)c(C(F)(F)F)c(F)c2F)n1	-10.6	9.8	-1.6	2.5%	0.9	8.6
C[C@H](CO)N1C[C@H](C)[C@@H](CN(C)C(=O)Nc2ccc(C(F)(F)F)cc2)Oc2c(NC(=O)CCC(F)(F)F)cccc2C1=O	-1.7	-5.1	2.1	4.7%	0.0	20.6
COc1cc(C(=S)N2CCOCC2)ccc1OC(=O)c1ccccc1	-0.7	-0.2	-1.7	0.8%	0.7	-2.6
COc1cccc(CNC(=O)c2cc(=O)[nH]c3ccc(S(=O)(=O)N4CCOCC4)cc23)c1	1.6	-9.4	-1.7	12.6%	-0.7	-2.3
O=C(Nc1cc(Cl)ccc1Cl)P(=O)(O)c1ccccc1	3.9	5.8	1.9	0.9%	-0.7	7.0
Cc1cc2c(NCC(C)O)ncnc2s1 (configuration not stated)	-8.4	-6.9	-6.7	0.3%	-0.2	6.3
O=[N+]([O-])c1ccc(-c2ccc(/C=N/Nc3nc(NCc4ccccc4)nc(N4CCOCC4)n3)o2)cc1	-7.5	-1.5	-5.1	5.2%	u	-3.4
Cc1cc(OCC(=O)NCCO)ccc1Cl	-14.2	4.1	-0.7	-3.0%	2.9	7.3
CCCCNc1ccc(C(CC(N)=O)NC(=O)Cc2cccc3ccccc23)cc1[N+](=O)[O-] (configuration not stated)	-0.6	-5.6	-1.2	3.4%	0.2	5.8
CN(c1ccccc1)S(=O)(=O)c1ccc(NC(=S)Nc2ccccc2)cc1	1.0	-10.6	0.2	-1.4%[38.3 µM]	0.0	0.8
CC1CCCCC1NC(=O)CSc1nnnn1-c1ccccc1 (configuration not stated)	11.5	9.5	-2.4	1.4%	-0.8	0.5
CC1CCN(C(=O)c2ccc3c(c2)N(Cc2ccccc2F)C(=O)c2ccccc2S3(=O)=O)CC1	x	-7.0	x	1.0%	-1.0	x
Cc1nc(N2CCN(c3ccccn3)CC2)c2c(C)c(C(=O)Nc3c(F)cc(F)cc3Br)sc2n1	14.5	-11.1	-0.3	3.7%	14.6	u
CC(=O)Cn1c(N2CCC(Cc3ccccc3)CC2)nc2c1c(=O)[nH]c(=O)n2C	-42.0	-17.0	-6.4	17.3%	0.2	-0.4
CC(=O)c1cccc(NC(=O)CNC(=O)Cc2cccc3ccccc23)c1	-6.2	-8.3	-0.7	0.7%	-0.2	-12.2
COc1ccc(CCC2(C)NC(=O)N(C(C)C(=O)Nc3ccccc3F)C2=O)cc1 (configuration not stated)	-2.4	12.3	8.0	0.8%	4.3	-0.1
CCOC(=O)c1ccc(N2C(=O)C(O)=C(C(C)=O)C2c2ccc([N+](=O)[O-])cc2)cc1 (configuration not stated)	10.8	x	2.9	0.6%	x	-1.4
COc1ccc(N(CC(=O)Nc2ccc(Cl)cc2)S(=O)(=O)c2c(C)n[nH]c2C)cc1	-9.2	-6.2	-2.1	0.7%	1.7	1.0
O=C(C1CCN(S(=O)(=O)c2ccccc2[N+](=O)[O-])CC1)N1CCOCC1	u	14.3	3.5	-0.4%	1.3	-0.4
CSc1ccc(C(=O)C2CCCN(Cc3cccn3-c3cccnc3)C2)cc1 (configuration not stated)	-18.6	-5.7	1.8	-1.9%	1.3	u
CN(C)CCCNC(=S)N1CCC(C(=O)c2ccc(Cl)cc2)CC1	-19.4	-4.7	-1.2	5.4%	-0.2	-10.9
Cc1ccc(NC(=O)COC(=O)C2CCC(=O)N2)c([N+](=O)[O-])c1 (configuration not stated)	-2.4	9.5	-2.9	2.8%	-0.5	4.8
O=C(COc1ccccc1O)N1CCN(C(=O)c2ccco2)CC1	1.4	3.4	3.4	1.7%	-0.2	4.5
O=[N+]([O-])c1ccc(O)c2ncccc12	-12.4	0.2	-4.9	-0.3%	-0.7	-90.8*
COc1cc(N2CCCC2)c(OC)cc1/C=C(/C#N)c1cccc(Br)c1	-6.5	-5.6	-1.1	3.6%	2.2	-67.0*
O=C(Nc1ccc(Cl)cc1)c1ccc(OC2CSC2)cc1	1.4	-15.4	-1.3	1.0%	-0.2	3.6
CCOc1ccc(N2CC(C(=O)Nc3ccccc3N3CCCC3)CC2=O)cc1 (configuration not stated)	-6.2	-7.6	-5.7	2.6%	-0.3	20.0
CN(CC(=O)O/N=C(\N)c1ccccn1)S(=O)(=O)c1ccccc1	2.8	-7.7	-2.7	4.4%[38.3 µM]	-0.5	-6.2
CCCCCCSc1ccc([C@H]2N[C@@](Cc3ccccc3)(C(=O)OC)[C@H]3C(=O)N(C)C(=O)[C@@H]23)cc1	-3.8	u	-0.4	0.7%	2.2	-11.9
O=C(CN1C(=O)NC2(CCOc3ccccc32)C1=O)c1ccc(Cl)s1 (configuration not stated)	3.3	4.7	9.1	0.5%	0.4	-3.6
O=C(Cc1ccccc1F)NNC(=O)c1cccs1	-3.8	-7.4	0.4	0.4%	-0.6	-2.7
O=C(CSC1=NS(=O)(=O)c2cc(F)ccc2N1)NCc1ccc(F)cc1	-7.9	8.8	-1.3	0.2%	0.2	-1.5
COc1cc(Nc2ccc(S(=O)(=O)N3CCN(C)CC3)cc2[N+](=O)[O-])cc(OC)c1	-5.4	-2.0	-0.1	1.9%	0.0	u
COc1ccc(N(CC(=O)Nc2cc(C)ccc2C)S(=O)(=O)c2ccc(OC)c(OC)c2)cc1	x	-18.3	x	5.4%	2.0	x
CC(=O)NC(Cc1ccccc1)C(=O)NC1CCN(C(=O)c2cnccn2)CC1 (configuration not stated)	-7.0	1.6	0.7	u	0.0	5.0
CN=C(NC1CCCCC1)c1ccc([N+](=O)[O-])cc1	1.9	6.1	2.6	-1.0%	-0.6	-0.9
Cc1cc(OCC(=O)NCCc2c[nH]c3ccccc23)c2c(C)cc(=O)oc2c1	0.5	x	-2.2	-0.3%	x	5.3
Cc1c(C(=O)NCc2cccc(Br)c2)oc2ccc3c(c12)C(=O)CC(C)(C)O3	x	-8.7	x	0.7%	u	x
COc1ccc(CNC(=O)c2cc(C3CC3)nc3c2cnn3C(C)C)cc1OC	-2.8	0.9	0.4	-1.5%	1.2	-1.7
Cc1cc(Cl)nc2ccc(Cc3ccc4nc(Cl)cc(C)c4c3)cc12	-6.3	12.0	-3.0	4.4%	-0.5	-1.3
NC(=O)c1cccc(NC(=O)CCCCC(=O)Nc2cccc(C(N)=O)c2)c1	2.9	-2.0	0.8	9.1%	-0.8	1.7
CC(C)C[C@H]1COc2cccc(N3CCN(Cc4ccccc4F)CC3)c2S(=O)(=O)N1	x	x	x	-0.1%	-0.9	-17.3
CCN1CCN(Cc2ccc(NC(=O)c3ccc(C)c(NC(=O)c4cc(-c5ccc(Br)cc5)n[nH]4)c3)cc2C(F)(F)F)CC1	-23.1	-6.9	1.1	-1.3%	0.5	-21.0
CCN1C(=O)[C@H]2[C@@H](c3ccc(-c4cccc(Cl)c4)c(OC)c3)N3CCCC[C@@]3(C(=O)OC)[C@H]2C1=O	-12.5	60.9	-3.8	1.7%	0.5	-18.0
COC(=O)C[C@H]1C[C@@H]2c3cc(NC(=O)Nc4ccccc4)ccc3O[C@@H]2[C@@H](CO)O1	1.2	10.5	3.2	-0.9%	-0.2	-4.6
CCOC(=O)c1ccc(NC(=O)N2CCN(CCc3ccccc3)CC2)cc1	-12.9	39.5	-2.3	-2.1%[38.3 µM]	2.9	-9.8
COc1ccc(N(CC(=O)NCc2ccccc2)C(=O)Cn2nnc(-c3ccccc3F)n2)cc1OC	-1.8	-8.4	-1.4	3.6%	0.0	4.9
Cc1c(C(=O)O)oc2ccc(S(=O)(=O)N(CC(C)C)CC(C)C)cc12	-17.5	40.2	-3.1	-2.0%	0.7	-3.8
Cc1ccc(C(=O)c2coc3ccc(O)c(CN(C)C)c23)cc1	-1.4	x	-1.2	-0.7%	x	2.2
O=C(COC(=O)C1C2CC3OC(=O)C1C3C2)Nc1ccc(Cl)cc1 (configuration not stated)	-6.1	31.2	-3.9	-1.3%	0.4	3.5
Cc1nc2c3ccccc3nc(NNC(=O)CCC(=O)NCCC(C)C)n2n1	-3.9	7.4	-3.2	-0.3%	-0.7	-21.8
COc1cc(C)c(NC(c2ccccc2)c2ccccc2)cc1OC	-6.3	-5.8	-2.9	3.7%	0.0	u
COc1cc2oc(=O)ccc2cc1-c1c(OC)ccc2ccc(=O)oc12	-2.2	11.2	-2.0	6.0%	-0.5	-0.5

Some values from the entries so far.
COc1cc2oc(=O)ccc2cc1-c1c(OC)ccc2ccc(=O)oc12 | D2 potentiator = -2.2
Cc1cc(OCC(=O)NCCc2c[nH]c3ccccc23)c2c(C)cc(=O)oc2c1 | D2 potentiator = 0.5

Continuation:
SMILES	D2 potentiator	TRPML1 inh	D2 agonist	PINK1 modulator	TRPML1 ag	Six1-Eya2 inh
Cc1noc(C)c1C(=O)OC(C)C(=O)Nc1ccc([N+](=O)[O-])cc1C(F)(F)F (configuration not stated)	-5.7	-0.5	-1.5	-0.2%	0.0	1.8
CCc1ccc(NC(=O)CCc2c(C)nn(-c3ccc(N4CCCCC4)nn3)c2C)cc1	-4.8	-9.5	0.6	-1.2%	1.0	0.0
Cn1nnnc1SCc1ccc(Cl)cc1	-7.9	-5.3	-6.3	0.2%	0.7	6.0
CC1(C)Cc2c(ccc3ccccc23)C2=C(C(=O)N3CCCC3)C(=O)C(=O)N21	8.0	53.3	6.3	0.0%	3.1	7.1
COP(=O)(OC)C(Nc1ccc(Cl)cc1)c1ccccc1 (configuration not stated)	-20.7	21.7	-5.8	0.8%	-0.5	4.8
CCOc1ccc(-c2nonc2NC(=O)c2ccco2)cc1	-10.9	7.1&7.0	-2.3	0.2%&-0.3%	1.3&2.6	-5.4
CSc1ncccc1C(=O)N1CCCC(Nc2ccc(C)c(C)c2)C1 (configuration not stated)	-0.3	7.7	-1.8	-0.9%	-0.4	7.4
Cc1cccc(C(=O)Nc2ccc(O)cc2)c1	3.6	-23.1	-2.4	1.3%	-0.5	-4.2
CC(C)Oc1ccc(CN2CCCC(CO)(Cc3ccc(F)cc3)C2)cc1 (configuration not stated)	-11.0	10.8	-3.5	12.8%	0.2	-2.7
